RGS16-Gao HTS: modulates binding between human RGS16 and Galphao; bead-based flow cytometry RGS16-Galphao binding, fluorescence; actives lie on both sides; binding response (% of control), % at 10 µM; actives 0.38% (n = 220,000);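 active = below 25% or above 175%, edge rows of some plates excepted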;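 also: Galphao activated by GDP with aluminum fluoride before binding; 100% = wells without compound and 0% = beads without RGS; some results beyond the cut were filed as inactive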
GALR2 ag: agonists of human galanin receptor 2 (GALR2); O43603; AID 803; activation, %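 (tested at 5 µM)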; GALR2-expressing cells, agonist activation read-out; actives 0.48% (n = 140,000);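 active = above mean plus 3 SD of all compounds, about 5% in these data, not always enough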;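 also: 0% = vehicle buffer wells and 100% = reference agonist at full effect; tested in CHO reporter cells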
INS promoter inh: TRM-6 insulin promoter activity inhibition; inhibition, % at 2 µM; actives 0.9% (n = 130,000); TRM-6 cells (human fetal islet line), insulin promoter-eGFP reporter, imaging; reporter expression induced with tamoxifen;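 active = inhibition above the mean plus 3 SD, with well images judged a real hit on visual review, cut at about 60% in these data, passing the limit was not always enough; inconclusive = inhibition over the cutoff but images rejected on review; inactive = inhibition not above the cutoff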
HSV augment: increases HSV replication in cells | maximum fold increase | actives 0.005% (n = 220,000) | HSV replication augmentation in cells, fold increase;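 active = peak rise of 1.5-fold or more in the series; inconclusive = self-fluorescent or not available for retest; tested in PC3 cells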;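 also: first round at 10 µM; read as green reporter fluorescence; hits show the peak of a series up to 25 µM; 1 = signal of infected wells without compound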
PKD1 inh: blocks activity of human protein kinase D1 | inhibition, %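 (about 10 µM by stock and volumes)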 | AID 797 | PKD1 kinase fluorescence polarization assay | Q15139 | actives 0.056% (n = 200,000);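 active = inhibition of 50% or more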;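 also: controls were vehicle for no effect and a reference inhibitor for full effect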
Target sequence (Q15139 whole entry, looked up): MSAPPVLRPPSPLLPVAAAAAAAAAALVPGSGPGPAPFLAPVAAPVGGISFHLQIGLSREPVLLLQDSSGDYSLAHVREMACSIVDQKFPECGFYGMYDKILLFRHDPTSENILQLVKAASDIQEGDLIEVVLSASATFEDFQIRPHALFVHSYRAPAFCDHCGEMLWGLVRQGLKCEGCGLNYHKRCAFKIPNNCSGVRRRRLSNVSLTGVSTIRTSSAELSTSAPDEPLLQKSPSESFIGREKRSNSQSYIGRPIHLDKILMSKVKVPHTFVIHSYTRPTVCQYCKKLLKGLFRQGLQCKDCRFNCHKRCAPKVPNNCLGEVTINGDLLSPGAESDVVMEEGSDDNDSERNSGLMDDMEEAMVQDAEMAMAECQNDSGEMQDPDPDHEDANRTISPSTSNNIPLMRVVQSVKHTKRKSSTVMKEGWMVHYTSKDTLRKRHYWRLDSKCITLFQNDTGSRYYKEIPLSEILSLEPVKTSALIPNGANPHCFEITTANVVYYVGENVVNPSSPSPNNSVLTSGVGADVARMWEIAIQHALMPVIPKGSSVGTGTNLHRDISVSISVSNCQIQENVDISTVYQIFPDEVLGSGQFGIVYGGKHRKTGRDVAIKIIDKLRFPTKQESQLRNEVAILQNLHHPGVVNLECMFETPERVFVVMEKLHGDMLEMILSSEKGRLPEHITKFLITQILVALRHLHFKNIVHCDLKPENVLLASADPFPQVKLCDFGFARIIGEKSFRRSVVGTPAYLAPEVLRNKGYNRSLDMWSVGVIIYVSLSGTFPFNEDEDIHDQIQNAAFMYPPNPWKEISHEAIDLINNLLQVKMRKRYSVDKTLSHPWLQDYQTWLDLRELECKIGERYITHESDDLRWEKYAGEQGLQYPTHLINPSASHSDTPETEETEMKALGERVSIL
INS promoter inh cell count: further read-out of INS promoter inh, marked with its call; normalized cell count, %; measured here: cell count, toxicity; reference of the scale not given here;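 cells exposed to compound for 48 h; stained nuclei by imaging scaled within each plate; lower means fewer cells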
HSV augment primary fold: recorded beside HSV augment, whose call it bears; fold increase; compound at 10 µM; measured here: primary screen fold increase 10 uM; tested in PC3 cells;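 GFP signal in the first replicate; 1 = infected wells without compound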
The depositor's hits bear a star; i = inactive; u = inconclusive; x = not tested or not shown; [ ] = another dose, or the depositor's remark.

SMILES	RGS16-Gao HTS	GALR2 ag	INS promoter inh	INS promoter inh cell count	HSV augment	HSV augment primary fold	PKD1 inh
O=C(O)CCCN1C(=O)c2ccc(C(=O)c3cccc([N+](=O)[O-])c3)cc2C1=O	102	x	0	131	i	0.89	-4
CCOC(=O)C1=C(CC)NC2=C(C(=O)CCC2)C1c1ccc(OC)c(OC)c1 (configuration not stated)	104	-1.7	-179	68	i	0.89	-12
O=C(c1cccc(NS(=O)(=O)c2cccc([N+](=O)[O-])c2)c1)N1CCOCC1	98	x	0	78	i	1	-3
O=c1cc(-c2ccc([N+](=O)[O-])cc2)nc2cc(-c3ccc(F)cc3)[nH]n12	65	-0.7	x	x	i	1.1	-5
Cn1nc(C(=O)N2CCc3ccccc3C2)c2ccccc2c1=O	100	-2.0	-3	73	i	1.1	-12
CCOc1ccccc1N(C(=O)c1ccccc1Cl)C1=NC(C)(C)CS1	101	x	x	x	i	0.84	-6
CCOC(=O)CSc1nc2c(sc(=S)n2-c2ccccc2OC)c(=O)n1Cc1ccco1	108	0.3	-24	71	i	1	-6
CCOc1nc(CC(C)C)c2c(c1C#N)CC(C)(C)OC2	102	x	x	x	i	1.1	x
CC1=C(C(=O)Nc2nc3ccccc3s2)C(c2ccco2)C(C#N)=C(SCC(=O)NC2CCCCC2)N1 (configuration not stated)	100	0.6	21	56	i	0.98	-2
Cn1cc(S(=O)(=O)N2CCN(c3ccccc3F)CC2)c(=O)n(C)c1=O	98	-1.8	x	x	i	0.92	-4
O=C(c1ccc2c(c1)OCO2)N1CCCN(C(=O)c2ccc3c(c2)OCO3)CC1	100	2.7	25	80	i	0.91	-3
O=C(NCc1cccs1)C1CCCN1S(=O)(=O)c1ccccc1F (configuration not stated)	103	-2.2	x	x	i	1.2	1
CCOc1ccc(S(=O)(=O)N(CC(=O)NC2CCCCC2C)Cc2ccco2)cc1 (configuration not stated)	106	-0.7	-23	100	i	1	-1
Cc1cc(C)cc(C(=O)OCC(=O)NCc2cccs2)c1	176*[activator]	-1.9	23	57	i	0.83	2
O=C(O)C1NCCc2ccccc21 (configuration not stated)	102	-0.6	55	51	i	0.78	-3
OCc1cn(-c2ccccc2)nc1-c1ccc(-c2nn(-c3ccccc3)cc2CO)cc1	121	-4.4	3	61	i	0.88	-1
O=C(c1[nH]ncc1-c1cccc(Br)c1)C1CO1 (configuration not stated)	99	x	x	x	i	0.67	x
COc1ccc(C2CC(c3c(-c4ccccc4)c4cc(Cl)ccc4[nH]c3=O)=NN2S(C)(=O)=O)cc1 (configuration not stated)	98	-1.2	-25	89	i	0.86	-6
CC#CCCCC(=O)Nc1ccc(C(=O)O)cc1	103	-2.5	50	107	i	0.79	2
O=C(Oc1cccc(/C=N/Nc2nc(Nc3ccccc3)nc(N3CCOCC3)n2)c1)c1ccco1	115	-1.5	-12	92	i	0.78	-17
Cc1onc(-c2c(Cl)cccc2Cl)c1C(=O)NCc1cccs1	104	-0.7	-39	109	i	1.1	0
Cc1cc(C)nc(NC(=S)Nc2cccc(F)c2)c1	107	x	x	x	i	0.98	x
O=C(c1cccc(C(F)(F)F)c1)N1CCCCCC1	101	-0.2	-3	176	i	0.95	6
c1ccc(OCCSc2nnnn2-c2ccccc2)cc1	106	-1.4	x	x	i	1	-1
O=C(Cc1ccccc1)NNC1CC(=O)N(c2ccc(Cl)cc2)C1=O (configuration not stated)	107	x	x	x	i	0.96	-7
O=C(Nc1ccc(Cl)c(Cl)c1)Nc1cc(C(=O)N2CCOCC2)ccc1N1CCCCC1	x	-3.6	-216	76	x	x	-9
CS(=O)(=O)NCc1nnc(SCc2c(F)cccc2Cl)o1	112	x	x	x	i	0.97	-3
COc1ccc(NS(=O)(=O)c2cc(S(C)(=O)=O)ccc2C)cc1	111	-1.8	-38	150	i	1	-5
COC(=O)c1[nH]c2cccc(OC)c2c1NC(=O)CN(C)CC1OCCO1	160	-2.9	-26	175	i	0.88	-3
O=C1N(CN2CCN(c3cccc(Cl)c3)CC2)c2ccccc2C12OCCCO2	55	-0.3	-21	72	i	0.88	-3

6 structures already listed, arranged by number of heavy atoms, high to low:
SMILES	RGS16-Gao HTS	GALR2 ag	INS promoter inh	INS promoter inh cell count	HSV augment	HSV augment primary fold	PKD1 inh
O=C1N(CN2CCN(c3cccc(Cl)c3)CC2)c2ccccc2C12OCCCO2	55	-0.3	-21	72	i	0.88	-3
COC(=O)c1[nH]c2cccc(OC)c2c1NC(=O)CN(C)CC1OCCO1	160	-2.9	-26	175	i	0.88	-3
O=C(Cc1ccccc1)NNC1CC(=O)N(c2ccc(Cl)cc2)C1=O (configuration not stated)	107	x	x	x	i	0.96	-7
Cc1onc(-c2c(Cl)cccc2Cl)c1C(=O)NCc1cccs1	104	-0.7	-39	109	i	1.1	0
CS(=O)(=O)NCc1nnc(SCc2c(F)cccc2Cl)o1	112	x	x	x	i	0.97	-3
Cc1cc(C)nc(NC(=S)Nc2cccc(F)c2)c1	107	x	x	x	i	0.98	x

More compounds follow:
SMILES	RGS16-Gao HTS	GALR2 ag	INS promoter inh	INS promoter inh cell count	HSV augment	HSV augment primary fold	PKD1 inh
CCSc1ccc2nnc(-c3cccc(F)c3)n2n1	97	0.5	x	x	i	0.98	-7
CCn1nc(C)c(NC(=O)CC23CC4CC(CC(C4)C2)C3)c1C	103	-0.9	7	54	i	1	0
Cc1ccc2nc(NCCCN3CCOCC3)c(C=NCCCN3CCOCC3)c(=O)n2c1	121	1.1	18	55	i	0.92	-8
Cc1nc2ccc(F)cc2cc1C(=O)Nc1ccc(Cl)c(Cl)c1	72	-0.4	-2	85	i	1.1	-8
Cc1nc2ccccn2c1/C(O)=C1\C(=O)C(=O)N(CCN(C)C)C1c1ccco1 (configuration not stated)	102	x	-9	54	i	0.89	-1
O=C(NCCc1c[nH]c2ccccc12)C(F)(F)C(F)F	101	-0.2	x	x	i	0.98	-7
COc1ccc(OCC(=O)NCCCN2CCOCC2)cc1	112	-0.6	-19	42	i	0.8	-9
CCOC(=O)C1C(=O)NC(c2ccccc2)=NC1c1ccc(Br)cc1 (configuration not stated)	88	x	18	91	i	0.92	0
Cc1ccc(CNC(=O)c2cc(-c3cc(C)cc(C)c3O)n[nH]2)cc1	103	x	x	x	i	0.97	x
CC(C)(C)S(=O)(=O)c1ccsc1C(=O)O	111	-0.9	40	91	i	0.97	-18
CCCN(CC(=O)Nc1cccc(Br)c1)CC(=O)Nc1ccc(F)c(F)c1F	106	1.4	x	x	i	0.99	-3
Cc1ccc(C(=O)CSc2nc3cccnc3n2C)cc1	83	-2.0	-19	46	i	0.77	-8
CC(C)(C)N(CC#CCC(O)(c1ccccc1)c1ccccc1)CCO	102	x	x	x	i	0.98	x
O=C(CC1CCCC1)Nc1nc2ccccc2[nH]1	100	0.9	x	x	i	0.87	-7
CCOC(=O)c1c(C)sc2c1N(C(C)=O)c1cc(Cl)ccc1S2	96	1.9	-15	114	i	0.79	-6
COC(=O)N/N=C/c1cn(Cc2ccccc2F)c2ccccc12	103	x	x	x	i	0.96	x
C=C(C)C(=O)NC1=NN(c2ccccc2)C(=O)C1	102	0.3	x	x	i	1	7
O=C(O)Cc1ccc(NC(=S)Nc2ccc(Br)cc2Cl)cc1	108	x	x	x	i	0.84	x
O=C1N/C(=N/O)S/C1=C/c1cccnc1	98	x	x	x	i	0.93	8
O=c1cc(N2CCOCC2)[nH]c(=O)n1C1CCCCC1	97	-0.7	x	x	i	0.91	1
CC1=NN(C(=O)c2cccc(Cn3nc(C)c([N+](=O)[O-])c3C)c2)C(O)(C(F)(F)F)C1 (configuration not stated)	115	-1.1	17	135	i	0.93	-2
Cc1oc(-c2cc(F)cc(F)c2)nc1CN1CCSCC1	103	x	x	x	i	0.86	-1
N#Cc1ccc(OCC(=O)NCC2(N3CCCCC3)CCCCC2)cc1	105	x	x	x	i	1.1	-7
COC(=O)C1C2C=CC3(CN(C(C)C)C(=O)C13)O2 (configuration not stated)	102	-2.5	x	x	i	0.88	-7
COc1ccc(/C=N/NC(=O)c2ccc(COc3cccc4cccnc34)cc2)cc1O	104	x	x	x	i	0.82	x
CC(C)Oc1ccc(C(=O)N/N=C/c2ccc(-c3ccc(S(=O)(=O)Nc4ncccn4)cc3)o2)cc1	72	-2.4	19	58	u	x	-2
CSc1ccccc1NC(=S)Nc1ccccc1C(F)(F)F	100	-2.0	-44	35	i	0.92	-2
Cc1ccc(C(CCN(Cc2ccccc2)C(=O)c2ccco2)c2ccco2)cc1 (configuration not stated)	103	0.5	-48	92	i	0.97	-7
CCC[N+]1(CC#CC2(O)CCCCC2)CCOCC1	103	x	-53	80	i	0.97	-1
COc1ccc(C=O)cc1Cn1ccnc1	100	x	x	x	i	0.98	-1
Nc1c(C(=O)NCc2cccs2)nnn1CC(=O)Nc1cccc(Cl)c1	102	x	x	x	i	0.9	2
COc1ccc(-c2nc3ccccc3c(=O)o2)cc1OC	111	0.8	7	85	i	0.83	-8
Cc1cc2cccc(C)c2nc1SCC(=O)NNC(=O)c1ccco1	100	x	7	124	i	0.96	-6
COC(=O)c1cc2ccsc2n1Cc1ccccc1F	113	-1.8	-100	65	i	0.94	-10
Cn1c(CCCOc2ccc(Cl)cc2Cl)nnc1SCC(=O)Nc1nccs1	97	-0.8	-28	124	i	0.83	-2
CC(=O)N(C(C)=O)S(=O)(=O)c1ccc(N=NN2CCCCC2)cc1	86	0.2	x	x	i	0.92	0
CN1CCN(CCC(=O)Nc2ccccc2Cl)CC1	113	-4.2	20	106	i	0.99	2
CCOc1ncccc1C(=O)Nc1nnc(C2CC2)s1	103	x	x	x	i	0.94	-1
COc1ccc(NC(=O)CN(C)CC(=O)Nc2cccc(S(=O)(=O)N(C)c3ccccc3)c2)cc1	103	x	x	x	i	0.81	-2
COc1ccc(/C=N/NC(=O)CC(=O)NCCc2ccccc2)cc1OC	99	-1.8	-24	51	i	1	-3
Cc1ccc2[nH]c3nc(SCCN4CCOCC4)nnc3c2c1	103	0.4	x	x	i	0.81	-2
N/C(=N\OC(=O)c1ccccc1[N+](=O)[O-])c1cccnc1	102	-2.1	-23	114	i	0.94	7
CCc1ccc(NC(=S)N(CCN(C)C)C(C)c2ccncc2)cc1 (configuration not stated)	101	x	-50	64	i	0.8	0
Cc1cc(C(=O)Cn2c(CO)nc3ccccc32)c(C)n1C	93	x	x	x	i	0.94	x
COc1ccc(NC(=O)CCS(=O)(=O)c2ccc3c(c2)CCCN3C(C)=O)cc1	108	1.6	53	93	i	1.1	-26
Cc1ccccc1C(=O)N=c1sccn1C	104	-1.9	-26	119	i	0.93	1
CC(=O)Nc1ccc(/C=C(\C#N)C(=O)NC2CCCCC2)cc1	111	x	x	x	i	0.84	2
Cn1c2ccccc2c(=O)c2c(=O)n(-c3ccc(F)cc3)c(-c3cccs3)nc21	101	x	x	x	i	0.97	x
COc1cc(C=O)ccc1Oc1nnnn1-c1ccccc1	97	x	x	x	i	1.1	x
CC(NC(=O)COC(=O)CCc1nc(=O)c2ccccc2n1C)c1ccccc1 (configuration not stated)	101	x	x	x	i	0.98	-2

Further records follow.
SMILES	RGS16-Gao HTS	GALR2 ag	INS promoter inh	INS promoter inh cell count	HSV augment	HSV augment primary fold	PKD1 inh
Nc1ncnc(N(c2ccccc2)C2CCCCC2)c1[N+](=O)[O-]	78	-1.3	x	x	i	1.1	-10
Cn1c(CCNC(=O)C2CCCCC2)nc2cc([N+](=O)[O-])ccc21	98	x	x	x	i	0.92	-5
COc1ccc(Nc2sc(C(=O)c3ccc(Cl)cc3)c(N)c2C(=O)Nc2ccccc2OC)cc1	97	14*	16	160	i	0.85	-2
CCN(CC)c1ccc(NC(=O)c2cnccn2)cc1S(=O)(=O)Nc1ccc(OC)cc1	106	-0.1	-46	71	i	0.66	4
Cc1[nH]n(-c2ccc([N+](=O)[O-])cc2)c(=O)c1C=NCCN1CCN(C(=O)c2ccc(Br)cc2)CC1	116	-4.0	19	25	i	1	-1
O=C(COC(=O)c1ccc2ccccc2c1O)NCC(F)(F)F	104	x	x	x	i	0.98	x
O=C(CSc1nc(-c2ccc(F)cc2)cc(C(F)(F)F)n1)NCc1cccs1	90	-0.1	x	x	i	0.86	-7
COc1ccc(C(=O)NC(=S)Nc2ccc(N3CCCC3)cc2)cc1	96	x	x	x	i	1	6
Cc1ccc(SCCCCN2C(=O)NC(C)(C)C2=O)cc1	96	-1.2	-212	51	i	0.95	-10

Bioassay records from PubChem BioAssay.

An unsorted share of the library; overall some 1.3% were active at least once.
